TRPV1 potentiator – potentiators of human vanilloid receptor 1 (TRPV1) | Q8NER1 | TRPV1-expressing cells, Fluo-8 calcium influx, capsaicin EC20 potentiation; host cell line not named in the record; control for the full effect not named in the record | potentiation, % at 8.33 µM | hit rate 0.02% among 320,000 | AID 540277; active means potentiation above 80%; inconclusive means 30% to 80%; inactive means below 30%; further: 0% is about no effect
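TRPV1-expressing cells were cultured overnight at 35.5C and loaded with Fluo-8 calcium dye for 40 to 90 min at room temperature. After a 10 s baseline, compound was added and calcium influx was read kinetically for 3 min (ex 480/em 520 nm).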
ClpP mod – qHTS Assay for Activators of ClpP | ATP-dependent Clp protease proteolytic subunit (Bacillus subtilis (strain 168)), P80244 | purified B. subtilis ClpP, FRET peptide cleavage, 20 min | Potency, µM (top dose mostly 57.5 µM), for the others: at the highest dose activity change, negative = active | hit rate 1.9% among 340,000 | AID 651965, 2013; active = well fitted falling curve with a large enough effect; inconclusive = small, poorly fitted or top-dose-only effect; inactive = no such curve, though single readings can be large or run the other way; further: potency means the concentration at half of the fitted maximal effect; the source files actives as falling curves though it sought activators and does not explain the sign; nearly all actives have a fitted effect of over 65% in size; many hits overshoot -100%
Target sequence (P80244 whole entry, looked up): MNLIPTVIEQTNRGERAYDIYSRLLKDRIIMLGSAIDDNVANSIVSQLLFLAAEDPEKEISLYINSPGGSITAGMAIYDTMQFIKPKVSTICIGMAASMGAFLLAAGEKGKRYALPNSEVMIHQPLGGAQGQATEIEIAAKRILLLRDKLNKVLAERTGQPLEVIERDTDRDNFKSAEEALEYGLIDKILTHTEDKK
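Buffer: 100 mM Tris/HCl pH8, 100 mM KCl, 0.05% low protease BSA, 2.5% glycerol, 0.01% Tween-20. ClpP 10 microg/mL final; 20 min RT; delta FRET normalized to ADEP and DMSO controls.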
Menin MLL FP FL – inhibitors of human menin-MLL interaction, wild-type MLL peptide | Fluorescence polarization, fluorescein-MLL peptide displacement from menin | FP activity change, % at 61.4 µM | 290,000 tested, under 10 active; inconclusive = falling polarisation curve, or a change in total fluorescence; inactive = total fluorescence flat and polarisation flat or rising; no compound was filed as active; the % refers to the polarisation; negative = inhibition;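 further: % of control where 0% means no effect; inhibitors lower the polarisation; unlabelled MLL peptide was the positive control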
TRPML1 inh – inhibitors of human TRPML1 channel. hit rate 0.02% among 390,000. activity change, negative = inhibition, % (no concentration beside the values). TRPML1-inducible cells, Ca2+ dye fluorescence, FDSS; active compounds read low; inhibition of EC80 agonist-evoked calcium signal. Q9GZU1; in the data active means activity change below about -50%; inconclusive means about -30% to -50%; inactive means above about -30%;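 further: stimulus is agonist 54-4 at its EC80 concentration; on the % scale 0 is the no-effect control and ±100 the full control effect; compound concentration not given in the record; the text of the record puts the active cut at -80%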
Target sequence (Q9GZU1 whole entry, looked up): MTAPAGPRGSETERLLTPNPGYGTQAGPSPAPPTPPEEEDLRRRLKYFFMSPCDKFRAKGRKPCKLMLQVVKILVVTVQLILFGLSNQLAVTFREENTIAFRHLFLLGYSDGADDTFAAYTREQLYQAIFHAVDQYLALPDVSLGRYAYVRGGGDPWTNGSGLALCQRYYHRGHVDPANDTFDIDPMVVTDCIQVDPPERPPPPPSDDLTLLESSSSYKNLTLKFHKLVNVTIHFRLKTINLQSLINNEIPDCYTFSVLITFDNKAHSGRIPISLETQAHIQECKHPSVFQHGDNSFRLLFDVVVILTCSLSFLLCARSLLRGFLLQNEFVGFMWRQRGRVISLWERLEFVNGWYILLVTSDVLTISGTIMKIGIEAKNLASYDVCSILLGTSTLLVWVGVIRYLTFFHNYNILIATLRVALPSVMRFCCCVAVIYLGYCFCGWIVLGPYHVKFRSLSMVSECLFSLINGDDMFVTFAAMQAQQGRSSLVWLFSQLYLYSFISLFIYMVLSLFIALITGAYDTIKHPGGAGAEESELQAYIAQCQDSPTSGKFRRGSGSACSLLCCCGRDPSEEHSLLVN
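Calcium fluorescence in TRPML1-DL cells induced overnight with Tet: a 110 s read after compound pin addition, then a 110 s antagonist read after challenge with 54-4 at 4 uM final (EC80).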
Sfp inh – Sfp phosphopantetheinyl transferase inhibition; Q9F4F7; Biochemical Sfp PPTase activity, qHTS; Potency, µM, for the others: max response, negative = inhibition, usual class: inhibitors; hit rate 3.5% among 310,000; AID 1490; active means well fitted inhibition curve with a large enough effect; inconclusive means small, poorly fitted or top-dose-only effect, or another doubt; inactive means no such curve, though single readings can be large or run the other way;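 further: the enzyme is Sfp with the accession as filed and its product quenches rhodamine fluorescence; potency means the concentration at half of the fitted maximal effect; 0% = enzyme reaction without inhibitor and -100% = no enzyme wells; top concentration of the series not given in the record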
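With Hepes-Na pH 7.6 buffer containing 10 mM MgCl2, Sfp (15 nM) modified BHQ-2-YbbR (12.5 uM) using rhodamine-CoA (5 uM). Two reads 30 minutes apart at 525/598 nm yielded each well's rate.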
gsp antag – gsp mutant antagonism | hit rate 0.4% among 340,000 | Potency, µM (titrated, usually from 76.9 µM), for inactives: at the top dose activity change, negative = inhibition, actives largely listed as inhibitors | gsp-mutant cells, cAMP HTRF, 30 min; control for the full effect not named in the record; active = falling curve of any shape with a large fitted effect; inconclusive = falling curve, mostly with a smaller effect; inactive = flat or rising curve; cell line not stated here;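 further: intracellular cAMP measured with PDE inhibitor Ro 20-1724 present during compound exposure; potency means the concentration at half of the fitted maximal effect; on the % scale 0 is the no-effect control and ±100 the full control effect; nearly all actives have a fitted effect of over 65% in size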
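HTRF cAMP read-out (cAMP-d2 plus anti-cAMP antibody-K in lysis buffer, 30 min RT). Before lysis, cells are exposed to compounds with […] for 30 min at 37C in DPBS containing Ca/Mg, BSA and Tween 20.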
gsp ag – agonists of gsp mutant (McCune-Albright syndrome); hit rate 0.13% among 340,000; gsp mutant cells, cAMP HTRF, 30 min; control for the full effect not named in the record; Potency, µM (doses to about 76.9 µM), for the others: at the top dose activation (cAMP increase), most hits filed as activators; active = well fitted activation curve with a large enough effect; inconclusive = small, poorly fitted or top-dose-only effect, or another doubt; inactive = no such curve, though single readings can be large or run the other way; cell line not stated here;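 further: phosphodiesterase inhibitor Ro 20-1724 added with compounds to block cAMP breakdown; potency means the concentration at half of the fitted maximal effect; nearly all actives have a fitted effect of over 60% in size; about a fifth of the inactives were tested at one dose only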
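Cells stably selected in G418 were plated at 2000/well, grown 16-24 hr, then given compounds in DMSO with the PDE inhibitor […] (300 uM solution added) for 30 min at 37C; cAMP was read by HTRF.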
Active calls of the source: *; ? = inconclusive; . = not tested or not shown; & = joins results of further samples; [ ] = another dose, or the depositor's remark. Hits appear at their usual frequency. Share with any hit: about 4.9%.

Every second line gives: TRPV1 potentiator, ClpP mod, Menin MLL FP FL, TRPML1 inh, Sfp inh, gsp antag, gsp ag
- COc1ccc(C2CC(C(F)(F)F)n3nc(C(=O)O)c(Cl)c3N2)cc1OC (centres undefined)
  -2, -4.3%, -0.3, -2, -14%, 0%, -1%
- O=C(Nc1ccc2c(c1)OCCO2)N1CCN(c2ccc(F)cc2)CC1
  -16, -5.3%, -0.6, -5, 20%, ?, 6%
- C=CC[C@@H](CC(=O)NCCO)C(=O)N[C@@H](COC(=O)[C@@H](CC=C)Cc1ccc(F)cc1)Cc1c[nH]c2ccccc12
  ., 1.3%, ., -29, ., -10%, 15%
- O=C(Nc1cccc(C(=O)O)c1)/C(=C\C=C\c1ccccc1)NC(=O)c1ccccc1
  2, ., -0.5, -11, 16%, -4%, ?
- COc1cc(C(=O)Nc2c(-c3ccccn3)c(=O)c3ccccc3n2C)cc(OC)c1OC
  ?, ., 1.4, ., -5%, ., .
- COc1ccc(/C=N/NC(=O)CNC(=O)/C=C/c2ccccc2OC)cc1
  25, -2.4%, -1.4, 14, -1%, 3%, -7%[15.4 µM]
- COCCn1c(SC)nnc1-c1c[nH]c2ccccc12
  -1, -1.3%, 3.0, 6, 5%, 7%, -28%
- CCOC(=O)c1cc2c(ccn2C)n1CC(=O)N(Cc1ccccc1)c1ccc(F)cc1
  -3, -10%, 3.8, -10, -2%, -5%, 20%
- CCCn1nnnc1SCC(=O)N1CCCC1
  -11, -2.7%, 2.2, 2, 5%, 6%, -14%
- CCOC(=O)c1[nH]c(=S)n(Cc2ccccc2)c1C(=O)OCC
  ., ., ., -10, ., ?, ?
- CCc1cccc(NC(=O)CN(C)S(=O)(=O)c2cccc3cccnc23)c1
  ?, -2.6%, -0.6, -19&-9, -2%, -15%, -13%[15.4 µM]
- CC(=O)OC(C(=O)NC1CCCCC1)c1ccc(C#N)cc1 (centres undefined)
  2, -1.4%, 0.0, 39, 13%, 12%, 17%
- C=CCC[C@@H](Cc1ccc(F)cc1)C(=O)OC[C@@H](Cc1c[nH]c2ccccc12)NC(=O)[C@H](CC=C)CC(=O)NCCO
  ., 0.0%, ., 0, ., -20%, -59%[inhibitor]
- CC1=CC(C)(C)N(C(=O)CSc2ncn[nH]2)c2ccc(C)cc21
  -9, 0.3%, 1.7, 7, 5%, 5%, -32%[inhibitor]
- CNC(=S)N/N=C/c1c(C)nn(-c2ccccc2)c1Cl
  -2, 1.3%, 5.5, 20, -5%, 3%, 1%
- CCOc1cc(NC(=O)c2ccccn2)c(OCC)cc1NC(=O)c1cccc(C)c1
  18, -0.2%, -7.2, -22, 16%, 0%, -61%[inhibitor]
- S=c1[nH]nc(-c2ccc(Cl)cc2)n1CC1CCCO1 (centres undefined)
  -8, -1.9%, 1.6, -8, 17%, -8%, 6%
- CC(C)N1CCN(c2ccc(OC[C@H]3CO[C@](Cn4cncn4)(c4ccc(Cl)cc4Cl)O3)cc2)CC1
  -19, -30%, ., 10, ., 23%, .
- Cc1ccccc1C1C(C#N)=C2N=C(N)c3ccccc3N2C2=C1C(=O)CCC2 (centres undefined)
  30, ., 1.3, 1, -9%, ?, 4%[15.4 µM]
- COc1ccccc1-n1c(SCC(=O)O)nc2c(sc(=S)n2-c2ccccc2C)c1=O
  -25, 1.8%, 11, -12, 12%, 0%, ?
- CCOc1cc2[nH]c(=O)n(CCCC(=O)NCc3ccco3)c(=O)c2cc1OCC
  -5, 25µM*, -1.5, -15, -7%, 12%, 20%
- CC1(C)Cc2c(sc(NC(=O)c3ccccc3)c2C(=O)O)CO1
  29, ., -0.8, -1, -21%, ?, -1%[15.4 µM]
- Cn1c(=O)c2nc(-c3ccc(Cl)cc3Cl)oc2c2ccccc21
  9, ?, -0.2, -2, 3%, 10%, -40%[inhibitor]
- Cc1ccc(S(=O)(=O)N2CCN=C2c2ccccc2)cc1C
  -2, 1.6%, 3.8, 11, 18%, 1%, -30%[inhibitor]
- O=C(Cn1cnc([N+](=O)[O-])c1)NC1CCCC1
  1, ., -1.3, 6, 6%, 9%, 9%
- Cc1ccc(/C=C2\SC(=S)N(CCCC(=O)Nc3ccc(O)cc3)C2=O)cc1
  -14, ., 10, -9, 8%, -4%, -5%[15.4 µM]
- CN(C)c1ccc(/C=N/NC(N)=S)cc1[N+](=O)[O-]
  -3, -2.3%, -0.6, 20, 4%, 3%, -7%[15.4 µM]
- Cc1ccc(-c2ccc(=O)n(CC(=O)NCCN(CC(C)C)CC(C)C)n2)cc1
  -6, -13%, 1.6, ., -1%, 5%, 24%
- Cc1cccc(C(=O)NNC(=O)c2cccc([N+](=O)[O-])c2)c1
  26, ., -1.6, 1, 13%, 15%, -11%[15.4 µM]
- C/C(CC(=O)Nc1ccc2c(c1)OCCO2)=N\NC(=O)c1ccc([N+](=O)[O-])cc1Cl
  ?, ., -12, -19, 4%, -2%, 13%[15.4 µM]

Later entries
Every second line gives: TRPV1 potentiator, ClpP mod, Menin MLL FP FL, TRPML1 inh, Sfp inh, gsp antag, gsp ag
- O=C(Cn1c2ccccc2c2nc3n(c(=O)c21)CCCS3)Nc1ccccc1
  11, -18%, ., 11, -3%, -15%, 0%
- CC(C)CNS(=O)(=O)c1ccc(NC(=O)Cn2nc(-c3ccc(F)cc3)ccc2=O)cc1
  -4, 28µM*, 2.8, -16, ?, -6%, -16%[15.4 µM]
- COc1ccc(CCC(=O)OCC(=O)Nc2c(C)nn(-c3ccccc3)c2C)cc1
  2, ., ., 9, ., 3%, -12%[15.4 µM]
- O=C(O)c1cccc(NC(=O)C23CC4CC(C2)CC(n2cnc(Cl)n2)(C4)C3)c1
  19, 0.1%, -0.9, 7, 17%, -2%, -10%
- c1ccc2[nH]c(CSc3nnc(-c4ccncc4)o3)nc2c1
  0, -17%, 1.8, 11, -9%, 2%, -33%
- CCN1CCN(c2nc3c(C)cccn3c(=O)c2/C=C(\C#N)S(=O)(=O)c2ccccc2)CC1
  4, -7.1%, -20, 0, 10%, -3%, 27%
- NC(=O)CC(NC(=O)Cc1cccc2ccccc12)c1ccc(NCc2cc(F)ccc2F)c([N+](=O)[O-])c1 (centres undefined)
  7, 0.2%, 2.6, -3, -17%, -1%, 0%
- COc1ccc(NC(=O)C(c2ccccc2)N(C)C(=O)c2cnccn2)cc1 (centres undefined)
  1, -1.6%, -1.1, 20, 3%, -5%, 14%
- CC(=O)Nc1ccc(S(=O)(=O)NCCC(=O)Nc2ccc(C)cn2)cc1
  2, -1.8%, ., 14, 5%, 8%, -8%
- O=C(CCN1C(=O)[C@@H]2Cc3ccccc3CN2C1=O)NCc1ccccc1Cl
  5, -0.4%, ., 8, 6%, -8%, -6%
- Cc1cc(C)nc(/N=C(\N)Nc2ccc([N+](=O)[O-])cc2)n1
  -14, -11%, -2.3, -3, 23%, 7%, 27%
- C=CCOC(=O)C1=C[C@H](c2coc3ccccc3c2=O)[C@@H](CCCO)[C@H](OCC)O1
  19, 0.9%, -0.4, 3, 4%, -9%, .
- CN(Cc1ccccc1)C(=O)COC(=O)c1ccc[nH]c1=O
  ., -4.0%, ., -6, ., 1%, 0%[15.4 µM]
- COC(=O)C1=C(C)N(c2ccc(C)cc2)/C(=C/c2cccs2)C1=O
  -19, -0.1%, 1.8, -16, 3%, -5%, 1%
- Cc1onc(-c2ccccc2)c1C(=O)OCC(=O)N1CCCCC1
  ., -2.2%, ., -7, ., ., -78%[inhibitor]
- N#Cc1cnn2c(C(F)(F)F)c3c(nc12)CCCC3
  -7, -14%, -1.6, 30, -3%, 0%, 3%
- COc1ccc(-n2c(C)cc(C(=O)CN3C(=O)C(=O)N(Cc4ccccc4)C3=O)c2C)cc1
  2, 0.8%, -3.6, ?, 16%, -7%, -1%
- CCn1c(SCC(=O)NCc2ccc3c(c2)OCO3)nnc1-c1ccco1
  7, ., ., 7, 20%, 1%, 23%
- N=c1n(CCN2CCCC2)c2ccccc2n1CC(O)c1ccco1 (centres undefined)
  -10, -0.1%, -12, -5, 7%, 0%, 5%
- Cc1cc(C)c(S(=O)(=O)NCC2CCC(C(=O)NCc3ccccn3)CC2)c(C)c1 (centres undefined)
  -4, ., 3.4, -11, -7%, 5%, -5%[15.4 µM]
- CC(=O)c1cccc(NC2c3ncccc3C(=O)N2Cc2ccco2)c1 (centres undefined)
  ?, -1.7%, -0.5, 18, 79µM*, 5%, 12%
- CC(C)c1ccc(-c2nn(-c3ccccc3)cc2C(=O)NCC2CCCO2)cc1 (centres undefined)
  -3, ., ., 9, ., -14%, -3%[15.4 µM]
- O=C(CCCCCN1C(=O)c2ccccc2C1=O)Nc1ccccc1F
  5, ., -6.4, 25, -1%, -8%, 23%
- CCn1nc(C(=O)Nc2ccc(Cl)c(S(=O)(=O)N3CCOCC3)c2)c2ccccc2c1=O
  -4, ., ., 18, ., -2%, -18%[15.4 µM]
- O=C(Nc1ccc2c(c1)OCCO2)c1cccc(Br)c1
  16, ., -1.1, 1, 1%, -16%, -30%
- NC(=O)c1nc(-c2ccco2)nc2c1[nH]c(=O)n2-c1ccc(Cl)c(Cl)c1
  11, ., 7.2, 8, 0%, 6%, -10%[15.4 µM]
- CCCCCCn1c(N(CC)CC)nc2c1c(=O)[nH]c(=O)n2C
  -23, -0.1%, 1.9, -1, 13%, 15%, -72%[inhibitor]
- CN(CCC#N)S(=O)(=O)c1ccc2c(c1)c(=O)n(C)c(=O)n2C
  2, -16%, 0.9, 7, 10%, 5%, ?
- N#Cc1ccc(CSc2ncnc3c2cnn3Cc2ccccc2)cc1
  2, -22%, -0.7, 1, 4%, 1%, -23%
- O=C(NCc1ccco1)C(c1cccnc1)N(C(=O)Cn1nnc2ccccc21)c1ccc(F)cc1 (centres undefined)
  4, 0.8%, 1.6, 5, 17%, 1%, 9%
